Screens from PubChem.
NPR1 antag = human Npr1 receptor antagonism; 76,000 compounds, 1.6% hits; HEK293 hNpr1 GloSensor cGMP, ANP-stimulated luminescence; Potency, µM (titrated, usually from 46.3 µM), for the others: top-dose activity change, negative = inhibition, usual class: inhibitors; P16066; active = well fitted inhibition curve with a large enough effect; inconclusive = small, poorly fitted or top-dose-only effect; inactive = no such curve, though single readings can be large or run the other way;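 further: nearly all actives have a fitted effect of over 60% in size; nearly all hits also lower the signal before the agonist is added; a reference antagonist and vehicle were the controls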
Target sequence (P16066 whole entry, looked up): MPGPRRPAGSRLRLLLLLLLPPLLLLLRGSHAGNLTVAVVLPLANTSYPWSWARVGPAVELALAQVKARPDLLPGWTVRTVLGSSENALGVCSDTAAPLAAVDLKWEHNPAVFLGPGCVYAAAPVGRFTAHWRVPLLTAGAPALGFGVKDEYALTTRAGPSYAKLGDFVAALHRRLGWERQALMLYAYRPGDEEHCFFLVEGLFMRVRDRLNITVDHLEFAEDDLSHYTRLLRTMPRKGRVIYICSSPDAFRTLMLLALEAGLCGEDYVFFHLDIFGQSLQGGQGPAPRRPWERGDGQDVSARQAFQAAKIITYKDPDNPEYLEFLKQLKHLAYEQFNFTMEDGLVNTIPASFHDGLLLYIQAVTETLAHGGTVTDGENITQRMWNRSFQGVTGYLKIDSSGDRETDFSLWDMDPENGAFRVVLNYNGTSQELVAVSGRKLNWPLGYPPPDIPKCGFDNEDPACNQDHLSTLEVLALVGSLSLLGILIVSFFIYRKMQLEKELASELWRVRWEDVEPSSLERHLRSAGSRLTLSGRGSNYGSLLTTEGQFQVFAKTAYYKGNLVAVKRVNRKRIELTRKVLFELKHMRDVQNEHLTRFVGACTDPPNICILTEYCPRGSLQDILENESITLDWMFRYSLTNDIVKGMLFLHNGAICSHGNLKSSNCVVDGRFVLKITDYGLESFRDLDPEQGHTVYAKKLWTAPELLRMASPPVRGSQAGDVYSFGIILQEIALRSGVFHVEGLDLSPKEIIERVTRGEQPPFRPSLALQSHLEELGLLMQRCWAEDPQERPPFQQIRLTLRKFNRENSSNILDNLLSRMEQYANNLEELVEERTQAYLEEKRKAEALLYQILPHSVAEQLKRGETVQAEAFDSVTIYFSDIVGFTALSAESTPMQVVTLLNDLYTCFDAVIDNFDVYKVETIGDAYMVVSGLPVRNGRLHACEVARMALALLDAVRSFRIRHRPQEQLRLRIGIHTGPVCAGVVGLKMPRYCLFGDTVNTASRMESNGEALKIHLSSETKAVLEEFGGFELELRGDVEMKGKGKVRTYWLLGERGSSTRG
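HEK293 cells stably expressing human Npr1 and cGMP GloSensor pGS-40F, loaded 2 h with 2% GloSensor reagent, given compound 30 min at room temperature. Luminescence read before and 20 min after 0.1 nM hNppA.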
The depositor's hits bear a star; ? = inconclusive; [ ] = dose if it differs, or a comment. On the % scale 0 is the no-effect control and ±100 the full control effect; potency means the concentration at half of the fitted maximal effect. These rows are one share of the data, so the mix of outcomes need not match the whole.

compound	NPR1 antag
COc1ccccc1Oc1c(CCC(=O)NCc2ccccc2)c(C)nn1-c1ccc(F)cc1	-24.4%
c1ccc(-c2nc(-c3ccncc3)no2)c(OC2CCNC2)c1 (configuration not stated)	-6.4%
COc1ccc(-c2nc3c(c(=O)[nH]2)CCN(S(=O)(=O)c2cccs2)C3)cc1	-14.9%
O=C(c1cccnc1)N1CCC2(CC1)N=C(c1ccc(Cl)cc1)NO2	-26.4%
CCCN1C(=O)NC(CC(=O)NCc2c(C)ncc3c2CCNC3)C1=O (configuration not stated)	5.4%
COc1ccc(-c2cnc(NC(=O)Cc3ccccc3)c3c2CCO3)cn1	-4.3%[70.6 µM]
CC(C)CCN1CC2(CCCN(S(=O)(=O)N3CCOCC3)C2)CCC1=O (configuration not stated)	3.1%
COCCOCC(=O)N1CC[C@H]2C(=O)NCCCCCCN(Cc3ccncc3)[C@@H]2C1	7.4%
CC(C)(C)CC(=O)N1CCC(N2C(=O)C3(CCCCC3)C2c2ccncc2)CC1 (configuration not stated)	5.8%
CCCCOc1ccc(C(=O)N2CCC(c3n[nH]c(=O)n3-c3ccc(C)cc3)CC2)cc1	?
O=C1CCN(Cc2cccnc2)CCCC(C(=O)NCCN2CCOCC2)CCN1 (configuration not stated)	4.3%
CCc1noc(-c2cccn3c(CNC(=O)c4cc5ccccc5[nH]4)nnc23)n1	2.7%

Continued:
compound	NPR1 antag
COCC(=O)NC[C@@H]1C=C(C)[C@H](Cc2nc3ccc(C)cc3[nH]2)C[C@H]1C(C)C	-21.9%[70.6 µM]
CCCNC(=O)N(C1CCOCC1)C1CCN(C(=O)Cc2ccccc2F)CC1	0.2%
CN(C)C[C@@H]1CN(c2ncccn2)C[C@H]1NC(=O)c1ccncc1	0.1%
Cn1nccc1C(=O)N1CC(c2ncc3c(-c4ccccc4)nccn23)C1	-6.5%[70.6 µM]
CC1(c2ccccc2)N(Cc2ccccc2C#N)C(=O)OC12CCN(C(=O)COc1ccccc1)CC2 (configuration not stated)	-3.2%
CN1C(=O)CS(=O)(=O)C12CCN(C(=O)CC(C)(C)C)CC2	1.8%
O=C(NCc1ccccc1Cl)c1noc(-c2ccc(F)cc2)n1	-3.0%
O=C(Nc1ccc2oc(-c3ccccc3)nc2c1)C1CCN(c2cnn(Cc3ccccc3)c(=O)c2)C1 (configuration not stated)	-1.7%
Cc1ccc(-c2cc3c(=O)n(CCNC(=O)c4cccc(N(C)C)c4)ccn3n2)cc1C	-1.7%
COc1cc(CNC(=O)C2Cn3cccc3C(=O)N2CC(C)C)cc(OC)c1 (configuration not stated)	-12.9%
Cc1nc(CCNC(=O)NC2CCCC2)no1	0.0%
COc1ccc(Cl)cc1-c1ccc2c(n1)CN(CCOc1ccccc1)C(=O)CO2	22.4µM*

Additional compounds follow.
compound	NPR1 antag
O=C(NC1CC1)c1ccccc1OC1CN(Cc2cccc(F)c2)C1	-7.9%
Cc1ccc(C(=O)N2CCC(c3nnc(Cn4cncn4)n3C)CC2)cc1F	5.4%
CNC(=O)[C@@H]1CN(Cc2ccc(OCC(C)C)c(OC)c2)C[C@H]1CO	-8.7%
CCOC(=O)c1ccc(NC(=O)N2Cc3[nH]cnc3C[C@H]2c2nc(-c3ccc(C)cc3)no2)cc1	-15.7%
COCCCN1CCc2c(n(Cc3ccccc3)n(-c3ccccc3)c2=O)C1	-24.6%[70.6 µM]
O=C1CCC2(CCCN(C(=O)c3ccc(F)cc3)C2)CN1CCc1cnc[nH]1 (configuration not stated)	4.0%
Cn1cccc1C(=O)N1CCCC(n2cc(-c3nc(C4CC4)no3)nn2)C1 (configuration not stated)	0.0%
CC(C)Cc1cc(C(=O)N[C@H]2CN(C(=O)N(C)C)C[C@@H]2C2CC2)nc(N)n1	3.1%
O=C(CC[C@@H]1CNC(=O)[C@@H]2C[C@H](NC(=O)Nc3ccsc3)CN12)NCc1cccs1	1.4%
CN(C)C[C@H]1O[C@@H](CO)[C@@H](O)[C@H]1N1CCCC1	4.3%[70.6 µM]
O=C(c1cccc(Cl)c1)N1CCn2c(nn(-c3ccc(F)cc3)c2=O)C1	0.8%
CN(Cc1ccccc1)C(=O)[C@@H]1Cc2nc[nH]c2CN1C(=O)CCC(=O)O	-2.5%[70.6 µM]

Later entries
compound	NPR1 antag
O=C(C[C@H]1NC(=O)c2ccccc2NC1=O)Nc1ncc[nH]1	-1.3%
CN(C)Cc1cn([C@H]2CO[C@H]3[C@@H]2OC[C@@H]3NC(=O)NC2CCCCC2)nn1	-0.2%[70.6 µM]
O=C(NCc1ccccc1C(F)(F)F)C1CCN(C(=O)C2CCC2)CC1	4.7%
Cc1noc(C)c1CCCNC(=O)c1ccc(NC[C@H]2C[C@H]3C=C[C@H]2C32CC2)nc1	8.3%
Cn1ccnc1CN1CCCC(CCc2ccccc2)C1 (configuration not stated)	-1.7%
CCOc1ccccc1N1CCN(C(=O)[C@H]2CCC[C@H]2NC(=O)c2cnc(C)cn2)CC1	5.5%
CC1CCC2(CC1)NC(=O)N(CC(=O)Nc1ccccc1C(F)(F)F)C2=O (configuration not stated)	-1.3%
CCOc1cccc(-c2nc(C(=O)NCCc3ccccc3OC)cs2)c1	-0.5%
O=C(O)CO[C@@H]1COCC[C@H]1NC(=O)CCCn1cncn1	-6.7%
O=C(C1CCCCC1)N1CC[C@H](c2nc3ccccc3s2)C1	-24.5%[70.6 µM]
COc1ccc(C(=O)N2CCC(C3CCN(C)CC3)C2)cc1F (configuration not stated)	0.2%
O=C(c1ccco1)N1CCc2nc3cc(-c4ccccc4Cl)[nH]n3c(=O)c2C1	-14.8%

The list goes on:
compound	NPR1 antag
O=C(c1ccc2ccccc2n1)N1C[C@@H](CO)[C@H](c2ccncc2)C1	-1.4%
CCc1noc(-c2cn(C3CCN(C(=O)c4ccc(OC)c(OC)c4)C3)nn2)n1 (configuration not stated)	-6.0%
Cc1ccccc1C(=O)N1CCc2nc(C3CC3)nc(-c3ccc(O)cc3)c2CC1	4.8%
O=C(c1ccc(C(F)(F)F)cc1)N1CCn2c(nn(-c3ccc([N+](=O)[O-])cc3)c2=O)C1	7.9%
O=C1CO[C@H]2CCN(Cc3cccs3)CC[C@@H]2N1c1ccccc1	-12.0%[70.6 µM]
O=C(NCc1ccccc1F)C1c2ccccc2C(=O)N(Cc2ccccc2)C12CCCC2 (configuration not stated)	-14.3%
Cc1ccc(OCC(=O)N2CCCCCC2c2nc(C)no2)cc1 (configuration not stated)	0.0%
COc1cccc(C(=O)N2CCC(N3C[C@H](O)C[C@H]3C(=O)Nc3ccc(F)cc3)CC2)c1	-14.3%
CCOc1ccc2c(n1)CCN(C(=O)c1ccc(OC)c(OC)c1)C2	-4.9%
Cc1ccc2nc([C@H]3CCN(C(=O)Nc4ccccc4)C3)[nH]c2c1	-6.7%[70.6 µM]
Cc1ccc(N2CC(Cc3ccccc3)N(C(=O)c3ccnn3C)CC2=O)cc1 (configuration not stated)	5.0%
O=c1ncn(Cc2ccccc2)c2ccc(-c3ccc(F)cc3F)nc12	-2.0%[70.6 µM]

Further structures.
compound	NPR1 antag
Cc1noc2c(Nc3ccc(N4CCOCC4)cc3)cc(-c3cccs3)nc12	-17.7%[70.6 µM]
CC(=O)N(C1CC1)C1CCOC2(CCN(C(=O)NCc3ccc(C)cc3)CC2)C1 (configuration not stated)	-7.6%
CN(C)C[C@@H]1CN(Cc2cccnc2)C[C@H]1NC(=O)C1CC=CC1	-1.4%
CN(C)CC1(O)CCC2(CCN(C(=O)CCCc3ccccc3)CC2)CC1	-3.1%
C[C@@H]1CN(Cc2nc3c(n2Cc2ccccc2)C(=O)N(Cc2ccccc2F)CCN3)C[C@H](C)O1	-7.8%
COc1ccc(-c2cc(C(=O)NCCc3cnc[nH]3)c3c(c2)N(C)CCO3)cn1	-1.5%[70.6 µM]
CN(Cc1ccccc1)C(=O)CC1CCNC1 (configuration not stated)	-3.5%
CC(C)CCN1C(=O)CC[C@]2(C(=O)N3CCN(C)CC3)CCCC[C@@H]12	-9.2%
Clc1cccc(-c2noc(-c3ncn4c3COC(c3ccccc3Cl)C4)n2)c1 (configuration not stated)	-2.8%
O=C(c1cccnc1OC1CCN(S(=O)(=O)c2cccc(F)c2)C1)N1CCOCC1 (configuration not stated)	0.4%
COc1ccc(NC(=O)CCC2CCCN(C(=O)C3=C(C)OCCO3)C2)cc1Cl (configuration not stated)	0.5%
CN1CCC2(C1)CN(CC1CC1)c1ccc(C(=O)NCCOc3ccccc3)cc12 (configuration not stated)	-18.5%[70.6 µM]

Remaining list, next part.
compound	NPR1 antag
CC(=O)c1c(C)nn(CC(=O)N[C@H]2CCOC[C@H]2C2CCOCC2)c1C	3.0%
O=C(CCc1ccccc1)N1CCC(c2noc(-c3cnccn3)n2)C1 (configuration not stated)	0.0%
CCc1ccc(CNC(=O)C2CCN(C(=O)c3nnn4c3COC(c3ccc(C)cc3)C4)CC2)cc1 (configuration not stated)	-12.8%
Cn1cnnc1C1CCN(C(=O)C2CCCN(C(N)=O)C2)CC1 (configuration not stated)	4.1%
COc1ccc(-c2nc(CN3CCC(CO)CC3)c(C)o2)c2ccccc12	8.5%
CCNC(=O)c1cccnc1OC1CCN(C(=O)c2ccc(OC)cc2)C1 (configuration not stated)	-1.7%
COc1ccc(-c2nc(C3CC(=O)N(c4ccc(F)cc4)C3)no2)cc1F (configuration not stated)	-0.5%
Cc1c(-c2cn(C)c(=O)n3cc(COc4ccc(Cl)cc4)nc23)cnn1C	-4.6%[70.6 µM]
COc1ccc(-c2ccc3nnc(CNC(=O)C(C)Oc4ccccc4)n3n2)cc1 (configuration not stated)	3.7%
CCC(=O)N1CCC(Oc2ccc(NC(=O)NCc3ccccc3)cn2)C1 (configuration not stated)	-3.4%
CCN1c2cc(C(=O)N3CCN(C4CCCCC4)CC3)ccc2C(=O)N2CCCCCC21 (configuration not stated)	-8.0%
CC(C)(C)C(=O)N1CCC(c2nn(-c3ccc(Cl)cc3)c(=O)[nH]2)CC1	21.2%

Next part
compound	NPR1 antag
CCC(c1nc(-c2cccnn2)no1)n1cc(C(C)=O)c2ccccc21 (configuration not stated)	-3.1%
CCOC(=O)N1CCN(Cc2nc(-c3ccc(C)s3)oc2C)CC1	1.3%
Cc1ccc(C(=O)N2C[C@@H](CN3CCOCC3)[C@@H](CO)C2)cc1O	1.7%
O=C(c1c[nH]c2ncccc12)N1CCOCC1	-3.2%[70.6 µM]

Of the compounds above, these contain an aryl methoxy group:
compound	NPR1 antag
COc1ccccc1Oc1c(CCC(=O)NCc2ccccc2)c(C)nn1-c1ccc(F)cc1	-24.4%
COc1ccc(-c2nc3c(c(=O)[nH]2)CCN(S(=O)(=O)c2cccs2)C3)cc1	-14.9%
COc1ccc(-c2cnc(NC(=O)Cc3ccccc3)c3c2CCO3)cn1	-4.3%[70.6 µM]
COc1cc(CNC(=O)C2Cn3cccc3C(=O)N2CC(C)C)cc(OC)c1 (configuration not stated)	-12.9%
COc1ccc(Cl)cc1-c1ccc2c(n1)CN(CCOc1ccccc1)C(=O)CO2	22.4µM*
CNC(=O)[C@@H]1CN(Cc2ccc(OCC(C)C)c(OC)c2)C[C@H]1CO	-8.7%
CCOc1cccc(-c2nc(C(=O)NCCc3ccccc3OC)cs2)c1	-0.5%
COc1ccc(C(=O)N2CCC(C3CCN(C)CC3)C2)cc1F (configuration not stated)	0.2%
CCc1noc(-c2cn(C3CCN(C(=O)c4ccc(OC)c(OC)c4)C3)nn2)n1 (configuration not stated)	-6.0%
COc1cccc(C(=O)N2CCC(N3C[C@H](O)C[C@H]3C(=O)Nc3ccc(F)cc3)CC2)c1	-14.3%
CCOc1ccc2c(n1)CCN(C(=O)c1ccc(OC)c(OC)c1)C2	-4.9%
COc1ccc(-c2cc(C(=O)NCCc3cnc[nH]3)c3c(c2)N(C)CCO3)cn1	-1.5%[70.6 µM]
COc1ccc(NC(=O)CCC2CCCN(C(=O)C3=C(C)OCCO3)C2)cc1Cl (configuration not stated)	0.5%
COc1ccc(-c2nc(CN3CCC(CO)CC3)c(C)o2)c2ccccc12	8.5%
CCNC(=O)c1cccnc1OC1CCN(C(=O)c2ccc(OC)cc2)C1 (configuration not stated)	-1.7%
COc1ccc(-c2nc(C3CC(=O)N(c4ccc(F)cc4)C3)no2)cc1F (configuration not stated)	-0.5%
COc1ccc(-c2ccc3nnc(CNC(=O)C(C)Oc4ccccc4)n3n2)cc1 (configuration not stated)	3.7%
